GIRK2 activ: activators of human GIRK2 potassium channels; P48051; HEK293-GIRK2 thallium flux, Thallos fluorescence; calls only for hits at 25 µM; 0.05% of 63,000 active; AID 1259325;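 active = among the strongest 0.2% of first-round signals and kept after retests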;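 also: first round at about 10 µM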
Target sequence (P48051 whole entry, looked up): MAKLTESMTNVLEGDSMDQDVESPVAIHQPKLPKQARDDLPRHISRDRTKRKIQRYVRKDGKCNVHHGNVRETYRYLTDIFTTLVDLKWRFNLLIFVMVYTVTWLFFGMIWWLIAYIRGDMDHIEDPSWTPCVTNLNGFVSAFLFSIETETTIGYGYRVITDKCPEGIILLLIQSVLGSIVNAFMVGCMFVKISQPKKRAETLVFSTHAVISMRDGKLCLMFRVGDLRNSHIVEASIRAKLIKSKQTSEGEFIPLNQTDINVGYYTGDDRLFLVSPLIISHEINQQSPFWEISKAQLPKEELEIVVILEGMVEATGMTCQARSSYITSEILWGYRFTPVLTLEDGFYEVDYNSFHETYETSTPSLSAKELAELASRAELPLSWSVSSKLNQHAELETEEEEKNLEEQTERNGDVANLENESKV
Calls only.

Screening C[C@H](N)C(=O)CCCCCC(=O)O returned GIRK2 activ inactive.
`Cc1cccc(OC(C)C(=O)Nc2cc(N3CCN(C)CC3)ncn2)c1C` (configuration not stated) gave GIRK2 activ inactive.
`O=C(NCc1ccc2c(c1)OCO2)c1c2c(nn1C1CCS(=O)(=O)C1)CCC2` (configuration not stated) gave GIRK2 activ inactive.
Screening COc1ccc(SCCCC(=O)Nc2sc(C)c(C)c2C#N)cc1 returned GIRK2 activ inactive.
Cc1nc(C)c(C(=O)C2=C(O)C(=O)N(CCN3CCOCC3)C2c2ccco2)s1 (configuration not stated) was read as GIRK2 activ inactive.
Screening COc1ccc(-c2ccc(N3CCN(S(=O)(=O)c4cccnc4)CC3)nn2)cc1OC returned GIRK2 activ inactive.
Screening CCOC(=O)N1CCN(Cc2cc(=O)oc3cc(O)c(CC)cc23)CC1 returned GIRK2 activ inactive.
`COC(=O)C1CCN(C(=O)Cn2cnc(-c3ccc(OC)cc3)cc2=O)CC1` gave GIRK2 activ inactive.
`CCOc1ccc(N(C)S(=O)(=O)c2ccsc2C(=O)Nc2cccc(C)c2)cc1` gave GIRK2 activ inactive.
CCOC(=O)Cn1c(=O)c2c(nc3n(CC(=O)OCC)c(C)cn23)n(C)c1=O was read as GIRK2 activ inactive.
`O=c1cc(CN2CCC3(CC2)OCCO3)c2c(ccc3ccccc32)o1` gave GIRK2 activ inactive.
For O=C(NCCS(=O)(=O)NCCCc1ccccc1)c1ccc2c(c1)OCO2 the results were GIRK2 activ inactive.
`O=S(=O)(c1ccc(Cl)s1)N1CC(c2nc(-c3cnccn3)no2)C1` gave GIRK2 activ inactive.
For CC(C)(C)N(C(=O)c1cccc([N+](=O)[O-])c1)C(=O)N1CCCCC1 the results were GIRK2 activ inactive.
For Cc1cc(C)n(-c2cc(NC(=O)COc3ccccc3F)ncn2)n1 the results were GIRK2 activ inactive.

Brought forward from above: 4 compounds, followed by the next part.
For O=C(NCCS(=O)(=O)NCCCc1ccccc1)c1ccc2c(c1)OCO2 the results were GIRK2 activ inactive.
`O=S(=O)(c1ccc(Cl)s1)N1CC(c2nc(-c3cnccn3)no2)C1` gave GIRK2 activ inactive.
For CC(C)(C)N(C(=O)c1cccc([N+](=O)[O-])c1)C(=O)N1CCCCC1 the results were GIRK2 activ inactive.
For Cc1cc(C)n(-c2cc(NC(=O)COc3ccccc3F)ncn2)n1 the results were GIRK2 activ inactive.
For Cc1ccccc1NC(=O)NCCC(O)c1ccoc1 (configuration not stated) the results were GIRK2 activ inactive.
`CCCCNc1nc2c(c(=O)[nH]c(=O)n2C)n1CC(O)COc1ccc(C)c(C)c1` (configuration not stated) gave GIRK2 activ inactive.
For O=C(Nc1ccc(-n2nnn(CC(=O)N3CCOCC3)c2=O)cc1)Nc1ccc2c(c1)OCO2 the results were GIRK2 activ inactive.
For Cc1cc(SCC(=O)NCc2ccc3c(c2)OCO3)nc(-c2cccnc2)n1 the results were GIRK2 activ inactive.
For COc1cn(C)c(C(=O)Nc2ccc(F)c(F)c2)cc1=O the results were GIRK2 activ inactive.
`N#Cc1ccc(C(=O)N2CCN(CC(O)c3ccco3)CC2)cc1` (configuration not stated) gave GIRK2 activ inactive.
`O=C1COc2ccc(OCc3ccc(F)cc3)cc21` gave GIRK2 activ inactive.
Screening O=C(CCc1ccccc1)NC1(c2nc(-c3ccncc3)no2)CCCCC1 returned GIRK2 activ inactive.
`Cc1onc(-c2ccccc2Cl)c1C(=O)N(CC1CCCO1)c1nc2ccc(F)cc2s1` (configuration not stated) gave GIRK2 activ inactive.
For Cn1nc(CNC(=O)c2ccc(S(=O)(=O)N3CCOCC3)cc2)cc1-c1ccncc1 the results were GIRK2 activ inactive.
For O=C(Nc1ccc(Nc2cc(-n3cccn3)ncn2)cc1)C(c1ccccc1)c1ccccc1 the results were GIRK2 activ inactive.
For CC(Cc1ccco1)NC(=O)CCSc1ccccc1 (configuration not stated) the results were GIRK2 activ inactive.
Screening Cc1ccc(C(=O)C2=C(O)C(=O)N(CCN3CCOCC3)C2c2ccccn2)o1 (configuration not stated) returned GIRK2 activ inactive.
Screening CCOc1ccc(S(=O)(=O)NCCn2nc(C(F)(F)F)n(C)c2=O)cc1 returned GIRK2 activ inactive.
`O=C(Nc1ncc(Cc2ccccc2)s1)c1cccc(-n2cnnn2)c1` gave GIRK2 activ inactive.
`O=C(NCC1(c2ccccc2)CCOCC1)NC1CC1` gave GIRK2 activ inactive.
Screening O=C(Nc1cccnc1)C(F)(F)F returned GIRK2 activ inactive.
`COc1cc(OC)cc(C(=O)Nc2nnc(-c3ccco3)o2)c1` gave GIRK2 activ inactive.
`CCOc1c(Cl)cc(Cl)cc1C(C)=O` gave GIRK2 activ inactive.
CC(CCc1ccccc1)NCC(O)c1ccc(O)c(C(N)=O)c1 (configuration not stated) was read as GIRK2 activ inactive.
`CCCCC[C@H](O)/C=C/[C@H]1[C@H](O)CC(=O)[C@@H]1C/C=C\CCCC(=O)Oc1ccc(NC(C)=O)cc1` gave GIRK2 activ inactive.
`Cc1cc(S(=O)(=O)N2CCCOC2CNC(=O)C(=O)NCCCN2CCOCC2)ccc1F` (configuration not stated) gave GIRK2 activ inactive.
`CCCCCC(O)/C=C/[C@H]1CCC(=O)C1CCCCCCC(=O)O` (some centres not stated) gave GIRK2 activ inactive.
COc1ccc(NC(=O)c2c(O)c3sccc3n(C)c2=O)cc1OC was read as GIRK2 activ inactive.
`CC(C)c1ccc(-c2ccc(=O)n(Cc3nc(-c4ccc(Cl)cc4)no3)n2)cc1` gave GIRK2 activ inactive.
`Cc1cn2c3c(=O)n(CCCc4ccccc4)c(=O)n(C)c3nc2n1-c1ccc(S(N)(=O)=O)cc1` gave GIRK2 activ inactive.
`Cc1cc(N2CCCCC2)nc(N2CCN(C(=O)c3ccc(C)c(C)c3)CC2)n1` gave GIRK2 activ inactive.
`Cc1nc(-c2ccc(F)cc2)sc1-c1cc(C(=O)N2CCSCC2)n[nH]1` gave GIRK2 activ inactive.
Screening Cn1c(=O)c2[nH]c(N3CCN(Cc4ccccc4)CC3)nc2n(C)c1=O returned GIRK2 activ inactive.
`Cn1c(C2CCCN(S(C)(=O)=O)C2)nn(CC(=O)NCCc2ccccc2)c1=O` (configuration not stated) gave GIRK2 activ inactive.

The closing 2 entries of the section before come first, to join the parts:
Screening Cn1c(=O)c2[nH]c(N3CCN(Cc4ccccc4)CC3)nc2n(C)c1=O returned GIRK2 activ inactive.
`Cn1c(C2CCCN(S(C)(=O)=O)C2)nn(CC(=O)NCCc2ccccc2)c1=O` (configuration not stated) gave GIRK2 activ inactive.
`Cc1cc(C)cc(S(=O)(=O)NCCNC(=O)c2ccc(NC(=O)C3CC3)cc2)c1` gave GIRK2 activ inactive.
For O=C(c1ccno1)N1CCC(Oc2nc3c(F)cccc3s2)CC1 the results were GIRK2 activ inactive.
O=C(CCSc1ccccc1)N1CC(c2nc(-c3cccc(Cl)c3)no2)C1 was read as GIRK2 activ inactive.
COc1ccc(-c2cc3nn(CC(=O)N4CCc5ccccc54)c(=O)n3c(C)n2)cc1 was read as GIRK2 activ inactive.
Screening Cc1ccc(C(=O)NC2CCN(C(=O)c3cn(-c4ccc(F)c(C)c4)nn3)CC2)cc1C returned GIRK2 activ inactive.
Screening COc1cccc(NC(=O)CN2CCc3[nH]c4c(C)c(Cl)ccc4c(=O)c3C2)c1 returned GIRK2 activ inactive.
`CN1CCN(n2c3c(c(=S)[nH]c2=O)CCC3)CC1` gave GIRK2 activ inactive.
Screening COC(=O)c1scc(-c2ccc(C)cc2)c1S(=O)(=O)Nc1cc(C)ccc1C returned GIRK2 activ inactive.
CCOc1ccc(/C=C/C(=O)N(C)Cc2ccccc2)cc1OC was read as GIRK2 activ inactive.
`O=C(O)CCCCCC[C@@H]1C(=O)NC(=O)C1CCC(O)C1CCCCC1` (some centres not stated) gave GIRK2 activ inactive.
CC1CCC(NC(=O)c2cn(C)nc2S(=O)(=O)N2CCN(c3ccc(Cl)cc3)CC2)CC1 (configuration not stated) was read as GIRK2 activ inactive.
For O=C1CCSCC(C(=O)NCCCc2ccccc2)N1 (configuration not stated) the results were GIRK2 activ inactive.
Screening CCOc1ccc(C(=O)N2CCN(c3nnc(SCC(=O)Nc4ccccc4)s3)CC2)cc1 returned GIRK2 activ inactive.
`Cc1nc2ccccc2n1CC1CCN(C(=O)Cc2ccc(SC(C)C)cc2)CC1` gave GIRK2 activ inactive.
`Cc1[nH]c2ccccc2c1C(=O)CSc1n[nH]c(N)n1` gave GIRK2 activ inactive.
`COc1ccc(Cl)c2sc(NC(=O)c3ccnn3C)nc12` gave GIRK2 activ inactive.
Cc1nn(C)cc1C(=O)NCCCN1CCCC1=O was read as GIRK2 activ inactive.
COc1ccc(OC(C)C(=O)NCc2sc(-c3ccccc3Cl)nc2C)cc1 (configuration not stated) was read as GIRK2 activ inactive.
For COc1ccc(CNC(=O)Nc2nnc(-c3ccccc3Cl)o2)cc1OC the results were GIRK2 activ inactive.
For O=C(c1ccc(F)cc1Cl)N1CCN(c2ccc(-n3cccc3)nn2)CC1 the results were GIRK2 activ inactive.
Screening O=C(O)CCCCC1CCSS1 (configuration not stated) returned GIRK2 activ inactive.
COc1ccccc1NC(=O)N1CCN(c2ccc(-c3noc(C)n3)cn2)CC1 was read as GIRK2 activ inactive.
`Cc1cc(NC(=O)CSc2nnc(N3CCN(C)CC3)s2)no1` gave GIRK2 activ inactive.
Screening O=C(NCc1ccc2c(c1)OCO2)C(=O)Nc1ccc(Cl)cn1 returned GIRK2 activ inactive.
O=C(Nc1ccc(-c2ccn[nH]2)cc1)C1(c2cccs2)CCCC1 was read as GIRK2 activ inactive.
COc1ccc(CNC(=O)Nc2ccc3c(c2)CCC(=O)N3)cc1OC was read as GIRK2 activ inactive.
For Cc1ccc(C2CC3C4NN=C(CCC(=O)N5CCN(c6ccccc6F)CC5)N4C=CN3N2)cc1C (configuration not stated) the results were GIRK2 activ inactive.
COc1ccc(-c2c[nH]c(=S)n2-c2cccc(Cl)c2)cc1 was read as GIRK2 activ inactive.
For Cc1nc(-c2ccco2)sc1CNS(=O)(=O)c1ccc(F)c(C(F)(F)F)c1 the results were GIRK2 activ inactive.
`Cn1c(Br)nc2c1c(=O)n(Cc1ccc(Cl)cc1)c(=O)n2C` gave GIRK2 activ inactive.
`CC(C)NC(=O)CCCCn1c(=O)c2ccccc2n(CC(=O)NCCCc2ccccc2)c1=O` gave GIRK2 activ inactive.
`Cc1cccn2c(=O)cc(OCC(=O)Nc3ccc4c(c3)OCCO4)nc12` gave GIRK2 activ inactive.
`COC(=O)c1cn(Cc2cccc(Br)c2)nc1S(=O)(=O)N1CCCC1` gave GIRK2 activ inactive.
Screening COCCN(Cc1ccoc1)C(=O)c1cc(-c2ccc(F)cc2)nn1C returned GIRK2 activ inactive.
COc1cc(NC(=O)Cn2nc3c(Sc4cccc(F)c4)nccn3c2=O)cc(OC)c1 was read as GIRK2 activ inactive.
`COc1cccc2sc(N3CC(OC(=O)c4cc(C)on4)C3)nc12` gave GIRK2 activ inactive.
Screening COc1ccc2c(c1)C=C(C(=O)Nc1ccc3ccc(=O)oc3c1)C=CO2 returned GIRK2 activ inactive.
For Cc1cc(C)c2c(CN3CCN(C/C=C/c4ccccc4)CC3)cc(=O)oc2c1 the results were GIRK2 activ inactive.
Screening O=C(NCc1ccc(C(=O)c2cccs2)s1)c1cccc(Br)c1 returned GIRK2 activ inactive.
`CCOC(=O)c1sc(NC(=O)CCCS(=O)(=O)Cc2ccccc2)nc1C` gave GIRK2 activ inactive.
`O=c1ccc(-c2ccccc2)nn1CCN1CCN(S(=O)(=O)c2ccccc2F)CC1` gave GIRK2 activ inactive.
C=CCn1c(=O)c2ccccc2n(Cc2nc(-c3cc(OC)c(OC)c(OC)c3)no2)c1=O was read as GIRK2 activ inactive.
O=c1ccc(-c2nc(-c3ccsc3)no2)cn1Cc1noc(Cc2ccccc2)n1 was read as GIRK2 activ inactive.
COCCNC(=O)Nc1nc(-c2ccc(Cl)s2)cs1 was read as GIRK2 activ inactive.
O=C(Nc1nnc(-c2ccc(Cl)s2)o1)c1ccc(Cl)cc1 was read as GIRK2 activ inactive.

A stretch from further up:
`CCCCC[C@H](O)/C=C/[C@H]1[C@H](O)CC(=O)[C@@H]1C/C=C\CCCC(=O)Oc1ccc(NC(C)=O)cc1` gave GIRK2 activ inactive.
`Cc1cc(S(=O)(=O)N2CCCOC2CNC(=O)C(=O)NCCCN2CCOCC2)ccc1F` (configuration not stated) gave GIRK2 activ inactive.
`CCCCCC(O)/C=C/[C@H]1CCC(=O)C1CCCCCCC(=O)O` (some centres not stated) gave GIRK2 activ inactive.
COc1ccc(NC(=O)c2c(O)c3sccc3n(C)c2=O)cc1OC was read as GIRK2 activ inactive.
`CC(C)c1ccc(-c2ccc(=O)n(Cc3nc(-c4ccc(Cl)cc4)no3)n2)cc1` gave GIRK2 activ inactive.

The listing continues.
`COc1ccc2cc(CC(=O)O)ccc2c1` gave GIRK2 activ inactive.
Cc1ccc(-n2nnc(C(=O)NCCc3ccccc3)c2C2CC2)cc1 was read as GIRK2 activ inactive.
Cc1nc(C)c(-c2nnc(NC(=O)C3CCCN3S(=O)(=O)c3cccs3)o2)s1 (configuration not stated) was read as GIRK2 activ inactive.
For COC(=O)Cn1c(=O)c2c(nc3n2CCCN3C2CCCCC2)n(C)c1=O the results were GIRK2 activ inactive.
For O=C(Cn1cnc2c(-c3ccncc3)nsc2c1=O)Nc1cccc(F)c1 the results were GIRK2 activ inactive.
Screening COc1ccc(/C=C/C(=O)c2ccccc2)c(OC)c1 returned GIRK2 activ inactive.
For CCCCN1C(=O)CCc2cc(NC(=O)c3ccc(OC)cc3)ccc21 the results were GIRK2 activ inactive.
Screening Cc1cccc(NC(=O)CSc2nc3c(oc4ccccc43)c(=O)n2Cc2ccco2)c1 returned GIRK2 activ inactive.
`COc1ccc(CC(=O)NCCn2ncccc2=O)cc1` gave GIRK2 activ inactive.
Cc1nc(-c2cccs2)sc1CNS(=O)(=O)C1CC1 was read as GIRK2 activ inactive.
Screening Cc1cc(Nc2ccc(NC(=O)Cn3cnc4ccccc43)cc2)nc(N2CCCC2)n1 returned GIRK2 activ inactive.
For CC(=O)N1CCN(c2nc3ccc(OC(F)(F)F)cc3s2)CC1 the results were GIRK2 activ inactive.
`COc1ccc(NC(=O)c2ccc3nn(CC(=O)Nc4ccc(S(C)(=O)=O)cc4)c(=O)n3c2)cc1` gave GIRK2 activ inactive.
Screening CCOc1ccc2c(c1)O/C(=C\c1ccc(C(=O)OC)cc1)C2=O returned GIRK2 activ inactive.
COc1ccc2c(c1)c(CC(=O)N1CCN(c3ncccc3I)CC1)c(C)n2C(=O)c1ccc(Cl)cc1 was read as GIRK2 activ inactive.

Only part of the results is shown; rates above refer to the full screens.
